# Bioassay records: PubChem, ICCB-Longwood Screening Facility, Harvard Medical School
# GIV-Gai inh – blocks GIV peptide binding to rat Galpha-i3; P08753; hit rate 0.42% among 210,000; Galpha-i3/FITC-GIV peptide fluorescence polarization, 90 min; active compounds read low; scaled: aluminum fluoride 0%, vehicle 100%; percent of control (FP), % (test concentration not listed);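 active means replicate mean at 85% of control or lower, very high polarization wells dropped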;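 further: lower values mean more displacement of the GIV peptide from Galpha-i3; wells of about 15 µL received 100 nL stock; the first replicate is given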
# Target sequence (P08753 whole entry, looked up): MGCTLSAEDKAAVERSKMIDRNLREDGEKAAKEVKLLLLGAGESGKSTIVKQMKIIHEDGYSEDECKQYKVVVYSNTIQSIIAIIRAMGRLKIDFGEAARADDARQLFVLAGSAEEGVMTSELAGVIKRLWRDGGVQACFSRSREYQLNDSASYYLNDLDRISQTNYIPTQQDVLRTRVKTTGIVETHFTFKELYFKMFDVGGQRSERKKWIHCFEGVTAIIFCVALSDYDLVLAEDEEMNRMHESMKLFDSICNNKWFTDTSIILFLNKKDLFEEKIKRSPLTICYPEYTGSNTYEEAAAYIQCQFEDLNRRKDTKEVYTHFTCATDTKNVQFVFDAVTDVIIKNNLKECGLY
# HCMV NEC inh – cytomegalovirus nuclear egress complex inhibition; HTRF UL50-UL53 interaction, normalized percent inhibition; inhibition, % (concentration not given with the values); hit rate 0.15% among 190,000; AID 1918969;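 active means both replicates at 50% or more, plus weaker picks with an unusually low signal ratio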;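 further: stock transfer was 100 nL into about 20 µL; 0% = negative control wells and 100% = wells with untagged competitor protein; inactives centre near -12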
# Sa growth 42C – blocks Staphylococcus aureus growth. S. aureus RN4220 growth, OD600, 20 h, 42 °C; active compounds read low. relative growth, % (concentration not given with the values). hit rate 0.53% among 170,000. AID 720641;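 active means growth at 42 °C up to 50% and 20 or more points under that at 30 °C, or under 10% at both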;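 further: 300 nL library stock went into each well; scaled to the means of positive and negative controls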
# Sa growth 42C second temp – further read-out of Sa growth 42C, marked with its call; relative growth, %; measured here: growth at 30 °C;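 optical density after 20 h as mean of two plates; 100% = untreated growth and lower means inhibition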
# * hit, by the source's call; · = no result given; & = joins results of further samples.
SMILES	GIV-Gai inh	HCMV NEC inh	Sa growth 42C second temp	Sa growth 42C
Cc1c(NC(=O)Cc2ccc(Cl)cc2)cccc1-c1nc2cccnc2s1	107	4	108	95
Cc1ccc(S(=O)(=O)N(C(F)F)C(C)(C)C)cc1	·	5	96	104
Cc1cc(C)nc(NS(=O)(=O)c2ccc(NC(=O)c3ccc(-c4ccccc4)cc3)cc2)n1	104	-8	·	·
CN(C)CCN1C(=O)c2ccccc2C1=O	101	-36	86	112
Cc1cc(C)c(/C=C/c2onc(C)c2S(=O)(=O)N2CCC(C(=O)N3CCN(c4ccccc4)CC3)CC2)c(C)c1	100	·	86	93
O=C(c1cc2sccc2n1Cc1ccccc1)N1CCCCC1	104	2	76	105
O=C(/C=C/N(c1ccccc1)c1ccccn1)C(F)(F)F	·	-12	86	94
CCc1noc2nc(C)nc(NCCOC)c12	106	3	·	·
Cc1cc(C(=O)CSc2nc3cc(S(=O)(=O)N(C)C)ccc3o2)c(C)n1-c1ccc2c(c1)OCO2	·	-18	84	97
CCC(=O)N1CCc2cc(CNS(=O)(=O)c3ccc(Br)s3)ccc21	100	·	75	71
COc1ccc(-n2nc(C(=O)NCC(=O)NC3CCCCCC3)c3ccccc3c2=O)c(OC)c1	100	0	88	104
C=C(C)Cn1c(SCC(=O)N/N=C/c2ccc(OC)cc2)nc2ccccc2c1=O	105	8	100	102
CC(Sc1nc(-c2ccccc2)cc(C(F)(F)F)n1)C(=O)NCc1ccccc1 (configuration not stated)	99	·	95	107
O=c1cc(CN2CCCC2)nc2nc(-c3ccccc3)[nH]n12	95	-18	·	·
CCOc1ccc(NC(=O)c2cnc(N3CCCC3)nc2C)cc1	105	·	91	90
CC1CCCN(C(=O)CN2CCN(C(=O)c3ccco3)CC2)C1 (configuration not stated)	107	-2	82	103
COc1ccc(/C=C(\C#N)S(=O)(=O)c2ccc(C(F)(F)F)cn2)cc1OC	100	7	80	100
CC(=O)Nc1cc(OC(C)=O)c2nonc2c1OC(C)=O	-28*	101*	0.6*	0.9*
O=C(NCc1cccnc1)c1cccc(NC(=O)N2CCCCc3ccccc32)c1	102&108	-11&-1	81	103
COc1ccc(-c2cc(C(=O)Nc3ccc(C#N)cc3)no2)cc1	105	0	92	92
CC(CN1CCOCC1)OC(=O)C1c2ccccc2Oc2ccccc21 (configuration not stated)	102	-10	80	88
O=C(Cc1ccc(-c2ccccc2)cc1)OCC(=O)N1CCCC1	·	8	104	140
CCC(=O)N1c2ccccc2NC2=C(C(=O)CC(c3ccco3)C2)C1c1ccco1 (configuration not stated)	110	-2	81	99
CN(C)CCN1C(c2ccccc2)=CC(=C2C(=O)N(C)C(=O)N(C)C2=O)C2=C1CCCC2	109	-8	90	99
Cc1cc(-c2cccs2)c2c(N)c(C(=O)c3ccc4c(c3)OCO4)sc2n1	100	-41	82	81

# (continued)
SMILES	GIV-Gai inh	HCMV NEC inh	Sa growth 42C second temp	Sa growth 42C
O=C(CSc1nnc(CCCN2C(=O)c3cccc4cccc(c34)C2=O)n1-c1ccccc1)N1CCN(CCO)CC1	100	-52	·	·
CNC(=O)C1CCC(=O)N1Cc1ccccc1Cl (configuration not stated)	100	7	89	90
O=C(Cc1cccc([N+](=O)[O-])c1)NCc1nc2cccnc2n1Cc1ccc(F)cc1	109	·	105	105
CCOc1ccc(NC(=O)CCS(=O)(=O)c2ccc3c(c2)n(C)c(=O)c(=O)n3C)cc1	96	-9	87	101
O=c1[nH]c2ccccc2c(=O)n1NS(=O)(=O)c1ccc2ccccc2c1	103	-3	102	115
COc1ccc2c(CCl)cc(=O)oc2c1	·	-6	95	108
CSc1ncc(Cl)c(C(=O)Nc2ccc(S(=O)(=O)N3CCC(C)CC3)cc2)n1	101	-10	90	108
S=C1NC2(CCCCC2)NN1c1ccccc1	102	4	90	98
FC(F)(F)c1n[nH]c(=S)n1/N=C/c1c[nH]c2ccccc12	·	-1	50	85
CN(C(=O)CSc1nc2ccccc2[nH]1)C1CCS(=O)(=O)C1 (configuration not stated)	·	-7	90	103
COc1cccc(NC(=O)CSc2nnc3[nH]c(=O)cc(-c4ccccc4)n23)c1	107	·	95	90
Cc1cc(C)c(S(=O)(=O)N2CCc3cc4ccc(C)cc4nc32)c(C)c1	94	11	·	·
O=C(Cc1cccs1)NCCC1=CCCCC1	100	-11	69	88
Cc1ccccc1CNC(=O)C(=O)NCC(c1ccc2c(c1)OCO2)N1CCOCC1 (configuration not stated)	96	·	87	99
CCn1c(=O)c2sccc2n2c(SCc3ccc(Br)cc3)nnc12	101	-38	·	·
CC(=O)NCCNc1nc2c(-c3cccc(C)c3)nnn2c2ccc(Cl)cc12	108	-6	85	111
COc1ccc(-c2cc(C(=O)N3CCOCC3)[nH]n2)cc1	97	-17	·	·
CCOC(=O)c1ccc2c(c1)[C@@H]1C=CC[C@@H]1[C@H](C(=O)OCC)N2	123	-32	70	84
Cn1cc(S(=O)(=O)c2ccccc2)c(=O)c2cc(F)c(N3CCCCC3)cc21	102&105	6	92	130
CCc1ccc(NC(=O)C(=O)NCCc2sc(-c3ccc(OC)c(OC)c3)nc2C)cc1	101	·	87	117
COc1ccc(N2CC(C(=O)NC3CC(C)(C)NC(C)(C)C3)CC2=O)cc1 (configuration not stated)	102	3	92	87
CCOc1ccc(Br)cc1C1C(C(=O)OC)=C(C)NC2=C1C(=O)c1ccccc12 (configuration not stated)	101	-14	88	118
Cn1c(SCC#N)nc2c(c1=O)C1(CCCCC1)Cc1ccccc1-2	108	11	104	108
CCCCOc1cccc2c1CCN(C)C2=O	99	-19	28	66
O=S(=O)(c1ccc(F)cc1)N(CCCN1CCOCC1)Cc1cccs1	105	10	99	99

# At a glance, part of the list above:
SMILES	GIV-Gai inh	HCMV NEC inh	Sa growth 42C second temp	Sa growth 42C
CSc1ncc(Cl)c(C(=O)Nc2ccc(S(=O)(=O)N3CCC(C)CC3)cc2)n1	101	-10	90	108
S=C1NC2(CCCCC2)NN1c1ccccc1	102	4	90	98

# Continued.
SMILES	GIV-Gai inh	HCMV NEC inh	Sa growth 42C second temp	Sa growth 42C
Cc1cc2n(n1)CCCN2C(=O)CCC(=O)NC1CCCC1	106	-5	·	·
Cc1ccc(C(C(=O)NC2CCCCC2)N(C(=O)C2COc3ccccc3O2)c2ccc3c(c2)OCO3)o1 (configuration not stated)	107	-8	77	125
CCOC(=O)NC1=C(C#N)C=Nc2ccccc2N1	101	-4	91	96
CC(=O)OCc1cc(=O)n2oc(C)cc2n1	101	-26	83	102
C/C=C/C(=O)Nc1ccc(Cl)c(Cl)c1	106	-22	78	80
CCCC(=O)Nc1cccc(-c2cn3cccnc3n2)c1	100	·	89	106
CC(C)CCNC(=O)c1ccc(CSc2nc3ccncc3n2Cc2ccccc2)cc1	106	·	82	94
COC(=O)C1=CN(Cc2ccc(Cl)cc2)C=C(C(=O)OC)C1c1cccs1	·	-17	87	91
O=C(CN1CCCC1c1cccs1)Nc1ccccc1C(=O)NC1CC1 (configuration not stated)	·	-9	89	111
Cc1c(C(=O)NCCN2CCN(Cc3ccccc3)CC2)sc2nc3n(c(=O)c12)CCC3	107	-7	92	118
COC(=O)c1sc(Nc2ccccc2)nc1C	110&105	-19&-6&7	68&108	99&94
Cc1cccc2sc(N(Cc3cccnc3)C(=O)Cc3ccccc3)nc12	99	·	58	74
O=C(CCS(=O)(=O)Cc1ccccc1)Nc1ccc(F)cc1F	107	4	99	109
COC(=O)c1ccc(COC(=O)c2c(-c3ccccc3)noc2C)o1	·	-21	98	93
O=C(O)c1ccc(NC(=O)C2CC(=O)N(Cc3ccc4c(c3)OCO4)C(=Nc3ccc(F)cc3)S2)cc1 (configuration not stated)	104	-22	·	·
C/C(=N\NC(=O)c1cc(-c2ccco2)nc2ccccc12)c1cccnc1	·	-36	85	76
CCOC(=O)c1csc(-c2ccc3nonc3c2)n1	103	-15	84	95
COc1cccc(C2C(C(=O)Nc3ccccc3OC)=C(C)Nc3nc(-c4ccco4)nn32)c1 (configuration not stated)	100	0	82	116
COc1ccc(/C=C\c2onc(C)c2S(=O)(=O)N2CCC(C(=O)N3CC(C)CC(C)C3)CC2)cc1 (configuration not stated)	102	-23	·	·
O=C(NC(Nc1ccccc1)(C(F)(F)F)C(F)(F)F)c1ccccc1	98	-23	84	135
NC(=O)CSc1cn(CC(=O)N2CCOCC2)c2ccccc12	103	·	88	106
O=S(=O)(Cc1ccc(Cl)cc1Cl)CC(O)Cn1ccc(C(F)(F)F)n1 (configuration not stated)	93	-16	85	85
O=C1CCC/C(=N\NC(=S)NCCc2ccccc2)C1	·	-31	101	96
CC(C)CN1C(=O)c2ccc(C(=O)NCc3ccccn3)cc2C1=O	108	-119	96	111
CCN(CC)C(=O)CSc1nc2cc(Cl)ccc2o1	100	-4	97	128

# (further entries)
SMILES	GIV-Gai inh	HCMV NEC inh	Sa growth 42C second temp	Sa growth 42C
O=C(O)Cc1csc2nc(-c3ccccc3)cn12	·	-4	94	104
NC(=O)c1cc2c(s1)-c1cc(Cl)ccc1SC2	102	-12	80	109
COc1cc(NC(=O)c2ccccc2)ccc1NC(=O)c1cc2ccccc2o1	109	-45	91	103
CC1(C)CC(=O)c2cc(C(=O)N3CC[N+](C)(C)CC3)c(=O)n(-c3ccc(Cl)cc3)c2C1	102	·	88	84
CCOc1cccc(/C=N/c2nnc(SC)s2)c1O	94	-28	91	105
O=C(NC(=NCc1ccncc1)Nc1cccc(F)c1)c1ccc2c(c1)OCO2	103	-18	·	·
O=C(Cn1nc(-c2ccccc2)c2c(c1=O)CCCC2)Nc1ccc(F)c(Cl)c1	104	15	68	98
O=C(NCc1noc2ccccc12)Nc1ccc(F)cc1F	98	·	98	115
COc1ccc(NC(=O)Nc2cn(C)c3ccccc23)c(OC)c1	105	-43	77	87
COCCOc1cc2nc[nH]c(=O)c2cc1OCCOC	102&101	-34&-26	84	92
CCCCNC(=O)C(C)N1C(=O)CCCc2ccccc21 (configuration not stated)	108	-12	·	·
Cc1nc2c(c(NCCCN3CCOCC3)n1)CCC2	105	-4	·	·
CCOc1ccc2nc(SC3CC(=O)N(c4cc(OC)ccc4OC)C3=O)sc2c1 (configuration not stated)	104	-16	·	·
O=C(NCc1cccnc1)C(C(=O)c1ccc(F)cc1)n1ccccc1=O (configuration not stated)	103	1	86	105
CC(Oc1ccc(Cl)cc1Cl)c1nc(-c2ccc(NC(=O)c3cccnc3)cc2)no1 (configuration not stated)	·	-2	84	107
Cc1ccc(S(=O)(=O)N(C)c2ccc(OCC(=O)N3CCN(c4ncccn4)CC3)cc2)cc1	·	-34	96	105
COc1ccccc1NS(=O)(=O)c1ccc2oc(=S)n(CN3CCCC3)c2c1	·	-27	89	85
CN1CCN(c2ncc3c(n2)CC(c2ccc(Cl)cc2)CC3=O)CC1 (configuration not stated)	108	12	·	·
CCOC(=O)c1c(-c2ccccc2)oc2ccc(N(C(C)=O)S(=O)(=O)c3ccc(CC)cc3)cc12	102	-5	90	110
Cc1cc(C)c2[nH]c(=O)c(CN(C(=O)Nc3ccccc3F)C3CC3)cc2c1	104	-21	108	114
O=C(Cc1ccccc1)OCc1csc(-c2ccccc2)n1	·	16	101	100
Cc1c(C(=O)NCc2ccc3c(c2)OCO3)cnn1-c1ccc(F)cc1	107	9	96	119
O=S(=O)(c1cc(Cl)sc1Cl)N1CCN(Cc2ccc3c(c2)OCO3)CC1	97	-19	82	103
CN1CCN(c2ccccc2NC(=O)c2cc3c(s2)-c2ccccc2OC3)CC1	101	·	98	114
CC1CCN(c2nc3c(c(=O)n(C)c(=O)n3C)n2Cc2ccccc2F)CC1	100	-9	·	·

# 3 structures out of the list, sorted by molar mass, ascending.
SMILES	GIV-Gai inh	HCMV NEC inh	Sa growth 42C second temp	Sa growth 42C
COCCOc1cc2nc[nH]c(=O)c2cc1OCCOC	102&101	-34&-26	84	92
COc1ccc(NC(=O)Nc2cn(C)c3ccccc23)c(OC)c1	105	-43	77	87
CN1CCN(c2ncc3c(n2)CC(c2ccc(Cl)cc2)CC3=O)CC1 (configuration not stated)	108	12	·	·

# Continued:
SMILES	GIV-Gai inh	HCMV NEC inh	Sa growth 42C second temp	Sa growth 42C
CCCS(=O)(=O)c1csc(C(=O)OC)c1NNC(=O)C(C)C	102	-34	86	90
CN(c1ccccc1)c1nc(N2CCCC2)nc(-n2ccnc2)n1	101	-21	86	108
O=C(Nc1ccccc1)c1cnc2ccccn2c1=O	104	-31	·	·
CCOC(=O)CNC(=O)N1CCN(S(=O)(=O)c2ccc3c(ccn3C)c2)CC1	101	·	95	96
Cc1cc(C(=O)OCC(=O)N2C(C)CCCC2C)c2ccccc2n1 (configuration not stated)	·	-61	94	108
CNC(=O)C1CCN(Cc2cc3ccccc3n2Cc2ccccc2C)CC1	102	·	92	111
CC1SC(c2ccccc2)N(Cc2ccccc2)C1=O (configuration not stated)	106	-29	101	92
CN1C(=O)C2(SCC(=O)N2c2cccc(C(F)(F)F)c2)c2ccccc21 (configuration not stated)	115	·	98	117
c1ccc(CNC2=NCCC2)nc1	·	4	92	86
